# Assay outcomes (PubChem BioAssay)
# Ecoli rRNA inh = reduced GFP signal of wild-type E. coli, primary screen, bacterial rRNA inhibitor project, GFP/RFP fluorescence, OD600, single point. hit rate 1.6% among 350,000. E. coli WT GFP vs humanized-ribosome RFP mutants, 24 h; hits give low values; DMSO median 0, no signal -100. GFP signal change (wild-type ribosome), % (no concentration beside the values);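 active means significant combined selectivity score with lowered wild-type GFP, culture density cut under 30%, mutant RFP and density less affected; inactive means any of these conditions unmet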; further: one replicate is shown; some compounds called inactive have numbers as strong as hits
# AF4-AF9 inh = inhibitors of AF4 peptide binding to AF9, primary screen, biochemical, AlphaScreen, biotin-AF4 peptide, FLAG-AF9, single point. inhibition, % at 10 µM. hit rate 0.47% among 350,000;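 active means every replicate reaching a set inhibition limit, whatever the replicate mean, cut at about 25% in these data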;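 further: 0% = plate neutral control median and 100% = total signal loss; the record names both 10 and 1 µM as test concentration; the first replicate is given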
# Target sequence (P42568 whole entry, looked up): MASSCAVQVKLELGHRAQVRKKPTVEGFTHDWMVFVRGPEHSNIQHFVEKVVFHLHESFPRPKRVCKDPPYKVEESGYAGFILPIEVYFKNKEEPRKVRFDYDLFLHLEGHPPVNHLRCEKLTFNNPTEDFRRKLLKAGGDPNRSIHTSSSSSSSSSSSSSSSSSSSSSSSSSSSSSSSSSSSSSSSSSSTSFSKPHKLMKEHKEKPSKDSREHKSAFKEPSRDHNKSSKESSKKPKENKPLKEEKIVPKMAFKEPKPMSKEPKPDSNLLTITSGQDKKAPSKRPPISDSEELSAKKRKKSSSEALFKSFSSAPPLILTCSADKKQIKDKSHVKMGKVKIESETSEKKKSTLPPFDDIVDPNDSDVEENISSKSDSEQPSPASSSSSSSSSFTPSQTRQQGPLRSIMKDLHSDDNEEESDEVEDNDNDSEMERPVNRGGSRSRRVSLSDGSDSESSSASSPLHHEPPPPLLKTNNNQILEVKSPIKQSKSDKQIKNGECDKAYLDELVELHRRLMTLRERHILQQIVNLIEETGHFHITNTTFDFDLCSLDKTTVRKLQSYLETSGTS
# FGF22 binding = binders of human FGF22 protein, primary screen, FGF22 synaptogenesis inhibitor project, biophysical, thermal shift, single point; Fibroblast growth factor 22 (Homo sapiens), Q9HCT0; recombinant FGF22 thermal shift, SYPRO orange fluorescence; percent of sucrose octasulfate shift, DMSO zero; calls only at 9.99 µM; hit rate 1.5% among 340,000; AID 651658, 2012;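 active means melting point raised past a set limit in the mean and every replicate; three in four hits are not shown here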
# Target sequence (Q9HCT0 whole entry, looked up): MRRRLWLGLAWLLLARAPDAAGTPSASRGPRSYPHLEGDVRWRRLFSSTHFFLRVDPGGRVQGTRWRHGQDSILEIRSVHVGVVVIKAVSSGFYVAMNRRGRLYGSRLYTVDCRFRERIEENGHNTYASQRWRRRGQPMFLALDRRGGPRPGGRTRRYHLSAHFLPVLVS
# Ecoli rRNA inh OD600 = also measured in Ecoli rRNA inh; calls as there; OD600 change, %; measured here: OD600 growth;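 optical density of the mix in the first replicate; 0 = DMSO median and -100 = no signal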
# Ecoli rRNA inh RFP = also measured in Ecoli rRNA inh; calls as there; RFP signal change, %; measured here: RFP humanized mutant strains;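 first replicate; 0 = DMSO median and -100 = no signal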
# * hit, by the source's call; i = inactive; nt = no result given; & = joins results of further samples. These rows are one share of the data. The share of hits here may be higher or lower than overall.
SMILES,Ecoli rRNA inh,Ecoli rRNA inh OD600,Ecoli rRNA inh RFP,AF4-AF9 inh,FGF22 binding
COc1ccc(C(=O)Nc2ccc3c(c2)C(=O)N(C)C[C@@H](OC)[C@H](C)CN(C)[C@H](C)CO3)cc1,2,-5,-3.7,-2.4,i
CC(=O)N1CC2(C1)[C@H](c1ccccc1)[C@H](CO)N2C(=O)c1cnccn1,3,12,-0.4,-5.4,i
COCC(=O)N1CC2(CN(Cc3cccnc3)C2)c2c(n(C)c3cc(OC)ccc23)[C@H]1CO,2,6,-0.1,1.2,i
CC(C)C1C(=O)N(Cc2cn(CC3CCCCC3)nn2)CCS(=O)(=O)N1Cc1ccc(-c2ccc(F)nc2)cc1 (configuration not stated),13,10,7.9,1.5,i
CCS(=O)(=O)NCC[C@@H]1CC[C@@H](NC(=O)Cc2ccccn2)[C@H](CO)O1,-2,-1,3.3,-4.7,i
CC(=O)N1CCCC(C)(C(=O)Nc2ccc3nc(C)ccc3c2)C1 (configuration not stated),5,2,-1.2,-3.4,i
O=C(C1CCOCC1)N1CC[C@@H]2[C@H](CO)Nc3ccc(Br)cc3[C@@H]21,0,5,0.9,-1.4,i
CC1(C(=O)Nc2cccc(C(F)(F)F)c2)Cc2c(-c3ccc4c(c3)OCO4)ccnc2O1 (configuration not stated),-2,-2,0.3,0.6,i
O=C(C[C@H]1C=C[C@H](NC(=O)CN2CCOCC2)[C@@H](CO)O1)NCc1cccc(F)c1,-2,-1,-0.4,0.2,i
O=C(C[C@H]1C[C@H]2c3cc(NC(=O)C4CCOCC4)ccc3O[C@H]2[C@H](CO)O1)NCc1cc(F)ccc1F,1,9,0.3,4.5,i
COc1ccc(N2CCN(C(=O)COC(=O)[C@@H](NC(=O)OCc3ccccc3)C(C)C)CC2)cc1,4,-13,0.5,5.0,i
COC(=O)C[C@H]1CC[C@H](NC(=O)Cc2ccccc2)[C@@H](CO)O1,10,12,3.5,-3.4,nt
COc1ccccc1CN(C)C[C@H]1OCc2cnnn2CCCC(=O)N([C@H](C)CO)C[C@@H]1C,7&-2,11&5,-1.1&-3.3,-1.4&-1.9,i
COc1ccc(-c2ccc(N3C(c4ccsc4)=Cc4ccc(F)cc4C3c3c[nH]c4ccccc34)cc2)cc1 (configuration not stated),-65,-76,-21,0.3,i
O=C(C[C@@H]1CC[C@H]2[C@@H](COC[C@@H](O)CN2S(=O)(=O)c2ccc(Cl)cc2)O1)NCc1ccc(Cl)c(Cl)c1,-57,-78,-17,5.0,i
C[C@H]1CN([C@@H](C)CO)C(=O)c2cccc(NC(=O)C3CCCCC3)c2O[C@@H]1CN(C)S(C)(=O)=O,2,3,-1.6,-1.2,i
CCCc1cn(CC[C@@H]2CC[C@H](NS(=O)(=O)c3ccc(-c4ccccc4)cc3)[C@@H](CO)O2)nn1,-4,-23,6.1,-2.5,i
C[C@@H]1CN([C@H](C)CO)C(=O)c2cc(NS(=O)(=O)c3cn(C)cn3)ccc2O[C@@H]1CN(C)S(=O)(=O)c1ccc(F)cc1,1,3,-0.7,-3.1,i
O=C(NCC1CC1)[C@H]1N[C@H]2c3ccc(C4=CCCCC4)c(=O)n3C[C@H]2[C@@H]1CO,-3,-9,-1.4,-12,i
CCC(=O)N(C)C[C@H]1Oc2cc(C#Cc3ccccc3)ccc2S(=O)(=O)N([C@H](C)CO)C[C@@H]1C,-11,-34,-0.6,1.5,i
CO[C@H]1CC[C@@H]2CCOc3c(C#N)cccc3C(=O)N(C)C[C@H](C)C(=O)N(C)C[C@H]1O2,4,-1,-1.6,-10,i
CNC[C@@H]1Oc2ncc(-c3ccccc3C)cc2C(=O)N([C@@H](C)CO)C[C@@H]1C,2,1,-3.0,5.0,i
Cc1ccccc1-c1csc(C(O)c2cccc(Cl)c2)n1 (configuration not stated),-63,-83,-21,-1.8,i
COc1ccc(NC(=O)Nc2ccc3c(c2)CC(=O)N([C@@H](C)CO)C[C@H](C)[C@@H](CN(C)Cc2ccccc2)O3)cc1,-2,-10,12,2.7,i
C[C@H](O)C#Cc1cnc2c(c1)C(=O)N([C@@H](C)CO)C[C@H](C)[C@@H](CN(C)Cc1ccc(-c3ccccc3)cc1)O2,3,-21,9.5,8.6,i
# Next results follow.
SMILES,Ecoli rRNA inh,Ecoli rRNA inh OD600,Ecoli rRNA inh RFP,AF4-AF9 inh,FGF22 binding
O=C(C[C@H]1CC[C@H]2[C@@H](COC[C@H](O)CN2CC2CCOCC2)O1)N1CCOCC1,7,25,-3.3,-8.8,i
CN(C)Cc1cn(CC[C@H]2CC[C@H](NC(=O)Cc3cccnc3)[C@H](CO)O2)nn1,-2,0,0.5,-2.5,i
COCC#Cc1cnc2c(c1)C(=O)N([C@H](C)CO)C[C@@H](C)[C@H](CN(C)C(=O)c1cnccn1)O2,5,13,-2.1,-3.1,i
CS(=O)(=O)Nc1ccc2c(c1)[C@@H]1C[C@H](CC(=O)NCc3ccncc3)O[C@@H](CO)[C@@H]1O2,5,13,1.1,0.2,i
Cc1noc(C)c1S(=O)(=O)N(C)C[C@H]1OCCCC[C@@H](C)Oc2ccc(NC(=O)Nc3cccc4ccccc34)cc2C(=O)N([C@@H](C)CO)C[C@H]1C,-1,-1,0.3,3.0,i
Cc1noc(C)c1S(=O)(=O)Nc1ccc2c(c1)C(=O)N([C@@H](C)CO)C[C@@H](C)[C@H](CN(C)C(=O)c1ccncc1)OCCCC[C@H](C)O2,2,6,-1.1,1.6,i
CO[C@H]1CN(C)C(=O)c2cc(NS(=O)(=O)c3ccccc3C)ccc2OC[C@@H](C)N(C)C[C@H]1C,1,1,-1.8,-3.8,i
CN1C(=O)c2cc(NC(=O)c3cc(F)cc(F)c3)ccc2OC[C@@H]2O[C@@H](CC(=O)O)CC[C@H]21,3,8,1.1,0.7,i
C[C@H]1CN([C@@H](C)CO)C(=O)c2cc(NC(=O)NC3CCCCC3)ccc2O[C@@H]1CN(C)C(=O)NC1CCCCC1,-2,-8,-1.0,-2.6,i
N#Cc1ccccc1C[C@H](N)C(=O)NC[C@H]1O[C@@H](n2ccc(N)nc2=O)[C@H](O)[C@@H]1O,8,12,1.8,-2.6,i
O=C(Nc1ccn(CCCN2CCN(c3ccccc3)CC2)c(=O)n1)OCc1ccccc1,2,5,1.5,7.2,i
O=C([C@H]1[C@H](CO)[C@H]2Cn3c(ccc(C4=CCCC4)c3=O)[C@@H]1N2C(=O)c1ccncc1)N1CCCCC1,3,5,-1.4,3.1,i
CCCN(C)C[C@@H]1Oc2cc(-c3ccc(C)cc3)ccc2S(=O)(=O)N([C@H](C)CO)C[C@@H]1C,-2,-5,1.1,-7.6,i
O=C(C[C@H]1C[C@H]2c3cc(NC(=O)c4cccnc4)ccc3O[C@H]2[C@H](CO)O1)NC1CCCCC1,-10,-8,-4.8,-2.4,i
C[C@@H]1CN([C@H](C)CO)S(=O)(=O)c2ccc(C3=CCCCC3)cc2O[C@@H]1CN(C)Cc1cccc(C(=O)O)c1,-5,3,-4.5,1.3,i
Cc1ccc(NC(=O)CSCC(=O)N(C)Cc2c(F)cccc2Cl)cc1,-13,-35,-7.2,-2.1,i
O=c1[nH]cc(S(=O)(=O)N2CCN(c3ccc(F)cc3)CC2)c(=O)[nH]1,5,6,-3.5,-2.9,i
CO[C@H]1CN(C)C(=O)c2ccc(NC(=O)C3CCCC3)cc2OC[C@@H](C)N(C(C)=O)C[C@H]1C,1,0,-1.4,1.9,i
CC(OC(=O)C1CC1C)C(=O)Nc1ccc(Cl)cn1 (configuration not stated),8,8,0.2,1.3,i
COc1ccc(-c2nc(CC(=O)Nc3cccc(S(=O)(=O)NC4=NCCC4)c3)cs2)cc1,-7,-15,-0.5,-12,i
C[C@@H]1CCCCO[C@@H](CN(C)Cc2ccccc2)[C@H](C)CN([C@H](C)CO)C(=O)c2cc(NC(=O)CCCN(C)C)ccc2O1,3,11,-1.4,-0.5,i
Cc1cc2c(nc1C)CCCN2S(=O)(=O)c1ccc(C#N)cc1,2,-5,4.7,0.3,nt
Cc1ccc(Cc2c(-c3ccc(C#N)cc3)nc3c4ccccc4ccn23)cc1,0,1,2.1,-1.1,i
OC[C@@H]1[C@@H](c2ccc(C#Cc3ccccc3F)cc2)[C@@H]2CN(Cc3cncnc3)CCCCN12,-1,-23,20,0.3,i
C[C@@H]1CN([C@H](C)CO)S(=O)(=O)c2ccc(/C=C/c3ccccc3)cc2O[C@@H]1CN(C)C(=O)CN1CCOCC1,-1,-4,0.2,7.6,i

# Arranged by number of heavy atoms (smallest number first): part of the list above
SMILES,Ecoli rRNA inh,Ecoli rRNA inh OD600,Ecoli rRNA inh RFP,AF4-AF9 inh,FGF22 binding
CC(OC(=O)C1CC1C)C(=O)Nc1ccc(Cl)cn1 (configuration not stated),8,8,0.2,1.3,i
Cc1cc2c(nc1C)CCCN2S(=O)(=O)c1ccc(C#N)cc1,2,-5,4.7,0.3,nt
O=C(C[C@H]1CC[C@H]2[C@@H](COC[C@H](O)CN2CC2CCOCC2)O1)N1CCOCC1,7,25,-3.3,-8.8,i
N#Cc1ccccc1C[C@H](N)C(=O)NC[C@H]1O[C@@H](n2ccc(N)nc2=O)[C@H](O)[C@@H]1O,8,12,1.8,-2.6,i
COc1ccc(-c2nc(CC(=O)Nc3cccc(S(=O)(=O)NC4=NCCC4)c3)cs2)cc1,-7,-15,-0.5,-12,i
CO[C@H]1CN(C)C(=O)c2ccc(NC(=O)C3CCCC3)cc2OC[C@@H](C)N(C(C)=O)C[C@H]1C,1,0,-1.4,1.9,i
CO[C@H]1CN(C)C(=O)c2cc(NS(=O)(=O)c3ccccc3C)ccc2OC[C@@H](C)N(C)C[C@H]1C,1,1,-1.8,-3.8,i
O=C([C@H]1[C@H](CO)[C@H]2Cn3c(ccc(C4=CCCC4)c3=O)[C@@H]1N2C(=O)c1ccncc1)N1CCCCC1,3,5,-1.4,3.1,i
C[C@H]1CN([C@@H](C)CO)C(=O)c2cc(NC(=O)NC3CCCCC3)ccc2O[C@@H]1CN(C)C(=O)NC1CCCCC1,-2,-8,-1.0,-2.6,i
C[C@@H]1CCCCO[C@@H](CN(C)Cc2ccccc2)[C@H](C)CN([C@H](C)CO)C(=O)c2cc(NC(=O)CCCN(C)C)ccc2O1,3,11,-1.4,-0.5,i
Cc1noc(C)c1S(=O)(=O)Nc1ccc2c(c1)C(=O)N([C@@H](C)CO)C[C@@H](C)[C@H](CN(C)C(=O)c1ccncc1)OCCCC[C@H](C)O2,2,6,-1.1,1.6,i

# (continued)
SMILES,Ecoli rRNA inh,Ecoli rRNA inh OD600,Ecoli rRNA inh RFP,AF4-AF9 inh,FGF22 binding
CC=Cc1ccc2n(c1=O)C[C@@H]1[C@@H](CO)[C@H](C(=O)NCCc3cn(C)cn3)[C@H]2N1C(=O)C1CCCC1 (mixture of isomers),2,2,-2.1,1.1,i
N#Cc1ccc(-c2ccc3c(c2)[C@H]2[C@H](CCN2C(=O)Cc2ccccc2)[C@@H](CO)N3)cc1,-48,-70,-1.7,-0.6,i
C[C@@H]1CN([C@H](C)CO)C(=O)c2cc(C#CC3CCCCC3)cnc2O[C@H]1CN(C)C(=O)C1CCCCC1,-2,-6,2.1,5.8,i
C[C@@H]1CN([C@H](C)CO)S(=O)(=O)c2ccc(Br)cc2O[C@@H]1CN(C)C(=O)Nc1ccc(C(F)(F)F)cc1,-11&-11,-31&-39,4.1&28,0.0,i
CCc1nc(SCC(=O)Nc2ccc(N(CC)CC)cc2)n[nH]1,7,7,-1.6,0.4,i
C[C@H]1CN([C@@H](C)CO)C(=O)Cc2cc(NS(=O)(=O)c3cccs3)ccc2O[C@@H]1CN(C)S(=O)(=O)c1ccc(F)cc1,-2,0,1.9,-0.2,i
CC(C)N1C(=O)C(=O)N(CC(=O)N2c3ccccc3NC(=O)CC2C)C1=O (configuration not stated),-21,-49,1.5,-5.7,i
C[C@@H]1CN([C@@H](C)CO)C(=O)c2c(c3ccccc3n2C)-c2ccccc2CO[C@H]1CN(C)C(=O)[C@H]1CCCN1C,-2,1,-1.1,-5.1,i
COc1ccc(S(=O)(=O)Nc2ccc3c(c2)C(=O)N([C@@H](C)CO)C[C@H](C)[C@H](CN(C)CC2CCCCC2)O3)cc1,3,0,-0.2,2.0,i
C[C@H](CO)N1C[C@H](C)[C@@H](CN(C)C(=O)CCC(F)(F)F)OCCCC[C@H](C)Oc2ccc(NS(=O)(=O)c3ccc(Cl)cc3)cc2C1=O,-1,-8,3.5,-2.0,i
N/C(=N\OC(=O)c1ccccc1)C(Cc1ccccc1)C(=O)NOC(=O)c1ccccc1 (configuration not stated),3,5,-0.5,0.7,i
Cn1ccc2c(-c3ccc(F)cc3)cc3c(c21)C1CCC3C1 (configuration not stated),-2,4,1.2,5.5,i
Cc1nc(Cl)sc1C(=O)Nc1ccc(F)cc1,2,2,-7.9,-2.4,i
CCCOc1ccc(F)cc1-c1cc(C(=O)NCc2ccco2)[nH]n1,-22,-47,0.1,-0.9,i
CN1C(=O)c2cc(NC(=O)Cc3cccs3)ccc2OC[C@H]2O[C@H](CC(=O)NCC3CC3)CC[C@H]21,4,8,-1.2,-12,i
O=C(Nc1nnc([C@H]2C[C@H](O)[C@@H](CO)O2)s1)C(c1ccccc1)c1ccccc1,-3,-1,-0.9,-1.4,i
